Source: PubChem
DUX4 txn inh – blocks DUX4-driven transcriptional activation | 293T-iDUX4 ZSCAN4-Gaussia luciferase reporter, 24 h; active compounds read low | activity change, negative = inhibition, % (test concentration not listed) | hit rate 0.8% among 37,000 | AID 1224904;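 active = -10% or lower and over 25 points stronger than a control reporter; inconclusive = -10% or lower with a smaller gap; inactive = above -10%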;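 note: 0% = median of neutral control wells and -100% = median of positive control wells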
DUX4 txn inh difference – recorded beside DUX4 txn inh, whose call it bears; Gaussia minus Italica difference, %; measured here: selective DUX4 reporter inhibition;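 worked out from the two reporters; negative = selective loss of the DUX4 reporter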
DUX4 txn inh control – recorded beside DUX4 txn inh, whose call it bears; activity change, negative = inhibition, %; measured here: Italica tet-on control reporter;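 0 = neutral control and -100 = positive control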
An asterisk follows results filed as active; ? = inconclusive; . = no result given; & = joins results of further samples. These rows are one share of the data; count on the stated rates, not on these rows.

molecule,DUX4 txn inh difference,DUX4 txn inh,DUX4 txn inh control
CS(=O)(=O)N1[C@@H]2c3ccc(-c4ccc(F)cc4)c(=O)n3C[C@H]1[C@H](CO)[C@H]2C(=O)N1CCOCC1,-10,-4,6.1
C[C@@H]1CCCCO[C@H](CN(C)S(=O)(=O)c2ccc(Cl)cc2)[C@@H](C)CN([C@H](C)CO)C(=O)c2cc(NS(=O)(=O)c3cn(C)cn3)ccc2O1,-1,-1,0.2
COc1ccccc1CN1[C@@H](CO)[C@@H]2c3ccccc3N(C(=O)C3CCCCC3)C[C@@H]21,-4,2,6.0
O=C(Nc1ccc2c(c1)[C@@H]1C[C@@H](CC(=O)N3CCc4ccccc4C3)O[C@@H](CO)[C@@H]1O2)c1cccnc1,.,?,.
COc1ccc2c3c([nH]c2c1)[C@H](CO)N(S(C)(=O)=O)CC31CCN(C(=O)c2ccccc2)CC1,23,6,-16
CCCN1C[C@H](C)[C@H](OC)CN(C)C(=O)c2cc(NC(=O)CC)ccc2OC[C@H]1C,1,0,-1.4
CCNC(=O)[C@@H]1[C@@H](CO)[C@@H]2Cn3c(ccc(-c4ccncc4)c3=O)[C@@H]2N1Cc1cc(F)ccc1F,4,5,1.8
O=C(N[C@H]1CC[C@@H](CCn2cc(-c3ccccn3)nn2)O[C@H]1CO)c1ccncc1,4,0,-3.2
CCC(=O)N1[C@@H]2Cn3c(ccc(/C=C/c4ccccc4)c3=O)[C@H]1[C@@H](C(=O)N1CCOCC1)[C@@H]2CO,-6,-1,5.2
Cc1noc(C)c1NC(=O)N(C)C[C@H]1Oc2c(NC(=O)CCC(F)(F)F)cccc2C(=O)N([C@H](C)CO)C[C@@H]1C,1,3,2.1
COc1cccc(NC(=O)Nc2ccc3c(c2)C(=O)N(C)C[C@@H](OC)[C@H](C)CN[C@@H](C)CO3)c1,-16,-10,6.1
Cc1noc(C)c1S(=O)(=O)N(C)C[C@H]1OCc2cnnn2CCCC(=O)N([C@H](C)CO)C[C@@H]1C,6,1,-5.9
N#C[C@@H]1[C@H](c2ccccc2C2=CCCC2)[C@@H](CO)N1C(=O)c1ccccn1,12,2,-10
C[C@H](O)C#Cc1ccc([C@H]2[C@H]3CN(CC4CC4)CCCCN3[C@H]2CO)cc1,20,22,2.1
O=C(C[C@@H]1CC[C@H]2[C@@H](COC[C@H](O)CN2Cc2ccc(F)cc2)O1)NCc1ccncn1,9,10,0.7
CO[C@@H]1CN(C)C(=O)c2cc(NS(=O)(=O)c3ccc(Cl)cc3)ccc2OC[C@H](C)N(C(=O)NC(C)C)C[C@@H]1C,-6,-2,4.3
COc1ccccc1-c1cccc(-c2nc(C(=O)N3CCN(C)CC3)cc3c2[C@H](CCO)N([S@@](=O)C(C)(C)C)C3)c1,-2,-3,-1.3
CCC(=O)Nc1ccc2c(c1)OC[C@H](C)N(C(=O)c1ccncc1)C[C@@H](C)[C@@H](OC)CN(C)C2=O,-1,0,1.2
COc1ccc(S(=O)(=O)N(C)C[C@@H]2Oc3c(NC(=O)Nc4c(C)noc4C)cccc3C(=O)N([C@H](C)CO)C[C@H]2C)cc1,-3,-1,1.8
Cc1ccc(S(=O)(=O)N2CC[C@H]3[C@@H](CO)N(C)c4ccc(-c5cccc(C#N)c5)cc4[C@H]32)cc1,.,?,.
COc1ccc(NC(=O)Nc2ccc3c(c2)C(=O)N([C@@H](C)CO)C[C@H](C)[C@H](CN(C)C(=O)NC2CCCCC2)OCCCC[C@H](C)O3)cc1,-3,0,3.1
O=C(C[C@H]1C[C@H]2c3cc(NC(=O)CC4CC4)ccc3O[C@H]2[C@@H](CO)O1)NCCc1ccccc1,-10,2,11
C[C@H]1CCCCO[C@@H](CN(C)C(=O)CCCN(C)C)[C@@H](C)CN([C@@H](C)CO)C(=O)c2cc(NS(=O)(=O)c3ccc(Cl)cc3)ccc2O1,2,4,1.5
CO[C@@H]1CN(C)C(=O)c2cc(NC(=O)Nc3ccccc3F)ccc2OC[C@@H](C)N(Cc2ccccc2F)C[C@H]1C,.,?,.
COc1ccc2c3c([nH]c2c1)[C@H](CO)N(C(=O)NC(C)C)CC31CN(C(=O)c2ccncc2)C1,-12,9,20
CC=Cc1ccc2n(c1=O)C[C@H]1[C@H](CO)[C@@H](C(=O)NC3CCC3)[C@@H]2N1C(=O)c1ccccn1 (mixture of isomers),-15,-10,4.9
CCS(=O)(=O)N[C@H]1C=C[C@H](CC(=O)NC2Cc3ccccc3C2)O[C@H]1CO,0,1,0.5
COc1ccccc1S(=O)(=O)N(C)C[C@@H]1OCc2ccccc2-c2c(n(C)c3ccccc23)C(=O)N([C@H](C)CO)C[C@@H]1C,.,?,.
COc1ccc2c3c(n(C)c2c1)[C@@H](CO)N(C(=O)c1ccccc1)CC31CN(C)C1,5,6,1.2
C[C@@H]1CCCCO[C@H](CN(C)S(=O)(=O)c2cn(C)cn2)[C@@H](C)CN([C@H](C)CO)C(=O)c2cc(NC(=O)Nc3ccc(C(F)(F)F)cc3)ccc2O1,0,-2,-2.6

Brought forward from above: two entries, then new ones.
molecule,DUX4 txn inh difference,DUX4 txn inh,DUX4 txn inh control
COc1ccc2c3c(n(C)c2c1)[C@@H](CO)N(C(=O)c1ccccc1)CC31CN(C)C1,5,6,1.2
C[C@@H]1CCCCO[C@H](CN(C)S(=O)(=O)c2cn(C)cn2)[C@@H](C)CN([C@H](C)CO)C(=O)c2cc(NC(=O)Nc3ccc(C(F)(F)F)cc3)ccc2O1,0,-2,-2.6
CC(C)N(C[C@H]1[C@H](c2ccccc2)[C@@H](CO)N1S(C)(=O)=O)C(=O)CN(C)C,-2,-2,0.0
CC(C)CC#Cc1ccc2c(c1)O[C@@H](CN(C)C(=O)Cc1ccncc1)[C@H](C)CN([C@H](C)CO)S2(=O)=O,3,2,-0.5
CO[C@@H]1CC[C@H]2CCN(C)C(=O)CCCN(C)C(=O)c3cccc(C#N)c3OC[C@H]1O2,-6,-8,-1.7
CNC[C@@H]1OCCCC[C@H](C)Oc2ccc(NS(=O)(=O)c3cccs3)cc2C(=O)N([C@@H](C)CO)C[C@@H]1C,2,1,-1.2
CCC(=O)N1CC(=O)N2[C@H](CO)[C@H](c3ccc(C#Cc4cccc(F)c4)cc3)[C@H]2C1,-8,-3,5.1
COc1ccc2c3c(n(C)c2c1)[C@@H](CO)NCC31CN(Cc2ccccc2Cl)C1,8,0,-8.6
CCC(=O)N1[C@H](C(=O)N2CCCCC2)[C@@H](CO)[C@@H]2Cn3c(ccc(-c4cccc(F)c4)c3=O)[C@@H]21,7,6,-0.8
COC(=O)[C@H]1[C@H](CO)[C@H]2Cn3c(ccc(-c4ccccc4)c3=O)[C@H]2N1Cc1ccccc1F,1,-2,-2.6
C[C@H](CO)N1C[C@H](C)[C@@H](CN(C)C(=O)Cc2ccccn2)Oc2ncc(C#CC3CCCC3)cc2C1=O,3,7,3.7
CCCC#Cc1ccc([C@H]2[C@@H](CO)N3C(=O)CN(C(=O)NC4CCCC4)C[C@H]23)cc1,-2,-1,1.4
O=C(C1CCCC1)N1[C@H](CO)[C@H](c2ccccc2)C12CN(CCC(F)(F)F)C2,.,?,.
N#Cc1cccc(-c2ccc3c(c2)[C@@H]2[C@@H](CCN2C(=O)CN2CCOCC2)[C@H](CO)N3)c1,7,6,-0.5
O=C(Nc1ccc(F)cc1)N1CC(=O)N2[C@@H](CO)[C@@H](c3ccc(C#Cc4cccnc4)cc3)[C@@H]2C1,.,?,.
COCC(=O)N1CCCCN2[C@H](CO)[C@H](c3ccc(C#Cc4cccnc4)cc3)[C@H]2C1,4,2,-2.6
O=C(C[C@@H]1CC[C@H]2[C@@H](COC[C@H](O)CN2C(=O)c2ccccc2F)O1)N1CCCCC1,19,25,6.4
CN(C)C(=O)c1cccc(-c2ccc([C@@H]3[C@@H](CO)N4C(=O)CN(C(=O)Cc5ccccc5)C[C@@H]34)cc2)c1,-1,-1,0.1
COc1ccc(NC(=O)Nc2ccc3c(c2)[C@H]2C[C@H](CC(=O)NCC(F)(F)F)O[C@@H](CO)[C@H]2O3)cc1,2,0,-2.1
O=C(C1CC1)N1C[C@@H]2[C@H](c3ccccc31)[C@H](CO)N2C(=O)c1ccccc1,1,2,1.5
Cc1noc(C)c1NC(=O)N(C)C[C@@H]1Oc2c(NC(=O)C3CCOCC3)cccc2C(=O)N([C@H](C)CO)C[C@@H]1C,1,2,0.9
N#Cc1cccc(-c2ccc3c(c2)[C@H]2[C@H](CCN2Cc2ccc4c(c2)OCO4)[C@H](CO)N3)c1,.,?,.
CN1CCN(C(=O)C[C@H]2C=C[C@H](NC(=O)Nc3ccccc3F)[C@H](CO)O2)CC1,7,9,1.9
COc1ccccc1NC(=O)N1CCCCN2[C@H](C1)[C@@H](c1ccc(-c3cccc(F)c3)cc1)[C@@H]2CO,.,?,.
COc1ccc(NC(=O)N2[C@@H]3CNC[C@H]2C3c2ccc(/C=C/c3ccccc3)cc2)cc1 (stereo partly drawn),1&17,18&14,17&-3.0
O=C1CNC[C@H]2[C@@H](c3ccc(C4=CCCC4)cc3)[C@@H](CO)N12,-5,8,13
CN1c2ccc(-c3ccc(C#N)cc3)cc2[C@H]2[C@H](CCN2C(=O)c2cccc(F)c2)[C@@H]1CO,.,?,.
C[C@@H]1CN([C@@H](C)CO)C(=O)CCCn2nncc2CO[C@H]1CN(C)C(=O)C1CCCCC1,1,4,2.8
CS(=O)(=O)Nc1ccc2c(c1)[C@H]1C[C@H](CC(=O)N3CCc4ccccc4C3)O[C@@H](CO)[C@H]1O2,3,0,-2.3
C[C@@H]1CN([C@H](C)CO)C(=O)c2cc(NS(=O)(=O)c3ccccc3)ccc2O[C@@H](C)CCCCO[C@@H]1CN(C)C(=O)C1CCCCC1,0,1,1.5
CO[C@@H](CN(C)Cc1nccs1)[C@@H](C)CN([C@@H](C)CO)S(=O)(=O)c1ccc(C)cc1,25,5,-20
Cc1ccc(S(=O)(=O)Nc2cccc3c2O[C@H](CN(C)C(=O)Nc2ccc(C(F)(F)F)cc2)[C@@H](C)CN([C@H](C)CO)C3=O)cc1,-3,-2,1.6

Reformatted with two lines to a compound: 5 of the compounds above
Results follow in this order: DUX4 txn inh difference, DUX4 txn inh, DUX4 txn inh control
COc1ccc(NC(=O)N2[C@@H]3CNC[C@H]2C3c2ccc(/C=C/c3ccccc3)cc2)cc1 (stereo partly drawn)
    1&17, 18&14, 17&-3.0
O=C1CNC[C@H]2[C@@H](c3ccc(C4=CCCC4)cc3)[C@@H](CO)N12
    -5, 8, 13
CN1c2ccc(-c3ccc(C#N)cc3)cc2[C@H]2[C@H](CCN2C(=O)c2cccc(F)c2)[C@@H]1CO
    ., ?, .
C[C@@H]1CN([C@@H](C)CO)C(=O)CCCn2nncc2CO[C@H]1CN(C)C(=O)C1CCCCC1
    1, 4, 2.8
CS(=O)(=O)Nc1ccc2c(c1)[C@H]1C[C@H](CC(=O)N3CCc4ccccc4C3)O[C@@H](CO)[C@H]1O2
    3, 0, -2.3

Other entries follow.
molecule,DUX4 txn inh difference,DUX4 txn inh,DUX4 txn inh control
CC(=O)N1[C@H](CO)[C@H](c2ccccc2)[C@@H]1CNC(=O)CN1CCOCC1,2,1,0.0
CO[C@@H]1CC[C@H]2CCOc3c(C#N)cccc3C(=O)N(C)CC3(CCCCC3)CC(=O)N(C)C[C@H]1O2,-2,-1,1.5
CN1C(=O)c2cc(NC(=O)C3CC3)ccc2OC[C@@H]2O[C@@H](CC(=O)NCc3cccc(F)c3)CC[C@@H]21,-3,-3,-0.2
Cc1ccc(S(=O)(=O)N2CC[C@@H]3[C@@H](CO)Nc4ccc(-c5ccccc5F)cc4[C@@H]32)cc1,.,?,.
CN1C(=O)c2cc(NC(=O)c3cnccn3)ccc2OC[C@@H]2O[C@H](CC(=O)NCC3CCCCC3)CC[C@@H]21,-5,-3,2.1
C[C@H]1CN([C@@H](C)CO)S(=O)(=O)c2ccc(-c3cncnc3)cc2O[C@H]1CN(C)C(=O)Cc1ccncc1,1,4,2.6
C[C@H](NC(=O)C[C@@H]1CC[C@H]2[C@@H](COC[C@@H](O)CN2C)O1)c1ccccc1,6,6,0.7
C[C@H]1CN([C@@H](C)CO)C(=O)CCCn2cc(nn2)CO[C@H]1CN(C)C(=O)OCc1ccccc1,-2,0,1.8
O=C(NC[C@@H]1[C@@H](c2ccccc2)[C@@H](CO)N1C(=O)Cc1cccnc1)C1CCC1,-1,2,3.0
COc1ccc2c3c([nH]c2c1)[C@@H](CO)N(S(C)(=O)=O)CC31CN(C(=O)c2cccnc2)C1,5,12,6.2
COc1ccc2c3c([nH]c2c1)[C@H](CO)N(C(=O)Nc1ccc(F)cc1)CC31CCN(S(=O)(=O)c2cn(C)cn2)CC1,-5,10,14
CCN1C[C@@H](C)[C@H](OC)CN(C)C(=O)c2cc(NC(=O)c3ccno3)ccc2OC[C@H]1C,-9,-5,4.2
C[C@H](CO)N1C[C@H](C)[C@H](CN(C)S(=O)(=O)c2cn(C)cn2)OCCCC[C@H](C)Oc2ccc(N(C)C)cc2C1=O,-2,-1,0.4
N#C[C@@H]1[C@H](c2ccccc2)[C@@H](CO)N1C(=O)C1CCCC1,1,2,0.8
COc1cccc(-c2ccc3c(c2)[C@@H]2[C@@H](CCN2S(=O)(=O)c2ccccc2C)[C@@H](CO)N3)c1,.,?,.
CCN(C[C@@H]1N[C@@H](CO)[C@H]1c1ccc(-c2cccc(F)c2)cc1)C(=O)COC,3,0,-2.9
CO[C@H]1CC[C@@H]2CCOc3ccc(C#N)cc3C(=O)N(C)C[C@@H](C)C(=O)N(C)C[C@@H]1O2,4,1,-3.1
COc1ccc2c3c(n(C)c2c1)[C@H](CO)N(C(=O)C1CC1)CC31CN(C(=O)C2CCOCC2)C1,4,14,9.8
